T cruzi inh: inhibitors of intracellular T. cruzi growth, primary screen, luminescence, NIH3T3 host cells | AID 1885, 2009 | T. cruzi beta-gal in NIH3T3, 90 h | inhibition, % (concentration not given with the values) | actives 1.4% (n = 300,000);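 active = mean inhibition across valid replicates above about 55%, limit read from the data; inconclusive = mean below that limit but half or more replicates reach it; inactive = mean below it, under half of replicates reach it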;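 also: signal also drops with host cell toxicity which is not excluded here; 0% = plate median of DMSO wells and 100% = zero luminescence signal; higher percent means less beta-gal luminescence so fewer parasites; stock transfer was 50 nL into about 50 µL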
AF4-AF9 inh: inhibitors of AF4 peptide binding to AF9, primary screen, biochemical, AlphaScreen, biotin-AF4 peptide, FLAG-AF9, single point. inhibition, % at 10 µM. Protein AF-9 (Homo sapiens), P42568. actives 0.47% (n = 350,000);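 active = every replicate reaching a set inhibition limit, whatever the replicate mean, cut at about 25% in these data; inconclusive = mean inhibition reaches that limit but some replicates miss it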;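 also: 0% = plate neutral control median and 100% = total signal loss; the record names both 10 and 1 µM as test concentration; the first replicate is given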
LANA-H2B inh: blockers of LANA interaction with H2A/H2B – biochemical, FP readout, HTS, primary screen; cell-free LANA-H2A/H2B peptide, fluorescence polarization; inhibition, % (no concentration beside the values); actives 0.6% (n = 320,000); AID 2629, 2010; in the data active = inhibition mostly above about 10%, no sharp cut-off; inactive = mostly below about 6.7%;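 also: stock transfer was 7.5 nL into about 10 µL; 0% = median of vehicle wells and 100% = median of positive control wells; one replicate is shown; the record names a cut of 25% in any replicate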
Target sequence (Q9QR71 whole entry, looked up): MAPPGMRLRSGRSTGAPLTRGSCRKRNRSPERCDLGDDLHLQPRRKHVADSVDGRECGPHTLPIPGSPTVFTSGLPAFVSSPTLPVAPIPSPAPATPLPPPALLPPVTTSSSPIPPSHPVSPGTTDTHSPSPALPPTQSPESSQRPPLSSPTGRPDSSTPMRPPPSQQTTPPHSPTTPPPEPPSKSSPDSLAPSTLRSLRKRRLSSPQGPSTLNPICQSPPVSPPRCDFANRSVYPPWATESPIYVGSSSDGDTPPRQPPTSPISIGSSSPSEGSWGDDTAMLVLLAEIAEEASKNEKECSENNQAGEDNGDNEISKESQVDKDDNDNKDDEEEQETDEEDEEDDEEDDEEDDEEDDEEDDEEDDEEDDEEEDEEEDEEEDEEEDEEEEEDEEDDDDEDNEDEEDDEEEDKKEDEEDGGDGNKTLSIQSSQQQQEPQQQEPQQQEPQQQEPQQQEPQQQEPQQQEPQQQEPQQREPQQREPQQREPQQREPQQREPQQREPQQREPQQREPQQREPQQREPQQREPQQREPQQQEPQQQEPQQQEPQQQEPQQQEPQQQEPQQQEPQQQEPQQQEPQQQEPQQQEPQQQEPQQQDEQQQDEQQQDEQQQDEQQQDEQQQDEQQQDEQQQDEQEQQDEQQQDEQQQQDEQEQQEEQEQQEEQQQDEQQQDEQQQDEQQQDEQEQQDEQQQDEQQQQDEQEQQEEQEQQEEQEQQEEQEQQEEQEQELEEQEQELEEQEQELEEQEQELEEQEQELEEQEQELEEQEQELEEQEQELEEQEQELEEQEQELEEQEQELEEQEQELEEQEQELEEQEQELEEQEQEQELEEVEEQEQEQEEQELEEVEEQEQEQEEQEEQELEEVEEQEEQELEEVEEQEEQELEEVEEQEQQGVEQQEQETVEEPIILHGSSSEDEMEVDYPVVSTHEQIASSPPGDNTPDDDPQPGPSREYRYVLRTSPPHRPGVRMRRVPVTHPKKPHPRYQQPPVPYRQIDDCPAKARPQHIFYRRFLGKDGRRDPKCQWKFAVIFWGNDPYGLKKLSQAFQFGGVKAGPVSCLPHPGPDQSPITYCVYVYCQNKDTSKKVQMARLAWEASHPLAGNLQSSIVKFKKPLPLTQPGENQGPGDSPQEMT
Vif A3G: inhibitors of Vif binding to APOBEC3G peptide, primary screen, biochemical, TR-FRET, GST-Vif 1-94, biotin-A3G peptide, dose response retest (AID 1117319); Virion infectivity factor (Human immunodeficiency virus type 1 group M subtype B (isolate …; actives 0.57% (n = 260,000); TR-FRET GST-Vif / biotin-A3G peptide binding; higher % means a stronger effect; test concentration not given here; strong numbers were not always called active; one-dose inhibition, %; IC50 in µM for titrated hits;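 active = above the screen mean plus three standard deviations and confirmed in dose response; inconclusive = results disagree or hit not tested in dose response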;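 also: Vif residues 1-94 fused to GST binding biotinylated APOBEC3G peptide 110-148; 0% = full assay without inhibitor and 100% = GST in place of GST-Vif; retest series ran down from 100 µM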
Beta apoptosis: inhibitors of cytokine-induced beta cell apoptosis, primary screen, luminescence | actives 0.8% (n = 300,000) | INS-1E cytokine-induced death, ATP luminescence, 48 h; percent of positive-control rescue, neutral wells zero | protection from apoptosis, % (no concentration beside the values);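 active = all replicates at 75% or more, or half of them and the mean; inconclusive = half reach 75% but not the mean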;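 also: 0% = cytokine-treated negative control wells and 100% = positive control rescue; higher means more ATP so stronger rescue from cytokine killing; wells of about 40 µL received 100 nL stock; the first replicate is given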
Calb FLC: C. albicans growth inhibition with fluconazole, primary screen, CaCi-2 strain, Alamar Blue fluorescence; C. albicans CaCi-2 (fluconazole-resistant clinical isolate) + fluconazole, 48 h; growth inhibition, % (concentration not given with the values); actives 0.57% (n = 300,000); AID 1979, 2009;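 active = most replicates above 75%; inconclusive = exactly half above 75%; inactive = most below 75%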;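 also: all wells also contain fluconazole at 8 µg/ml as a sub-toxic cotreatment; 0% = median of DMSO wells and 100% = median of geldanamycin control wells; wells of about 8 µL received 7.5 nL stock; the first replicate is given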
RanGTP-Imp inh: inhibitors of RanGTP-importin-beta interaction, primary screen, biochemical, FRET, CFP-Ran, YFP-importin-beta, homogeneous | Ran GTPase (GTP-bound) - importin-beta complex | cell-free CFP-Ran/YFP-importin-beta FRET ratio | inhibition, % (concentration not given with the values) | actives 1.1% (n = 300,000);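 active = most replicates above 15%; inconclusive = exactly half above 15%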;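 also: 0% = DMSO wells and 100% = Ran loaded with GDP instead of GTP; wells of about 40 µL received 100 nL stock; the first replicate is given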
Bfl-1 A1 inh: caspase 3/7 activation in MEF A1-2A-BIM cells, primary screen, A1 inhibitor project, cell-based, luminescence, HTS. caspase activation, % (no concentration beside the values). Caspase-Glo 3/7 luminescence, 3 h; percent of clofoctol response, vehicle zero. actives 0.066% (n = 330,000);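 active = over half of replicate activation scores above 10%, or exactly half above 10 with the replicate mean above 10; inconclusive = replicate mean below 10 yet half the replicates above 10; inactive = over half of replicates below 10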;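 also: wells of about 30 µL received 50 nL stock; many hits fall short of the cut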
* hit, by the source's call; ? = inconclusive; · = no result given; & = joins results of further samples.

SMILES | T cruzi inh | AF4-AF9 inh | LANA-H2B inh | Vif A3G | Beta apoptosis | Calb FLC | RanGTP-Imp inh | Bfl-1 A1 inh
COc1cc2c(cc1OC)C1(NCC2)C(=O)Nc2ccccc21 (stereo not drawn) | -3.8 | · | 7.4 | 2.8% | 0.8 | -4.4 | -0.4 | -0.3
Nn1c(SCC(=O)Nc2ccc(F)c(F)c2)nnc1C1CCCCC1 | -0.3 | · | 5.0 | 2.4% | -6.7 | -3.4 | 3.8 | 0.4
Cc1cccc(C)c1OCC1CNC(=O)O1 (stereo not drawn) | -13.6 | -2.3 | 1.4 | -9.2% | -5.9 | -8.6 | 4.7 | -0.2
Cc1nn(C)cc1S(=O)(=O)N1CCCC(C(=O)O)C1 (stereo not drawn) | -8.3 | 0.3 | 8.7 | 1.3% | -2.6 | -6.3 | -4.2 | -0.1
CC1Cc2ccccc2N1C(=O)CN1CCN(S(=O)(=O)c2cccs2)CC1 (stereo not drawn) | · | -1.2 | -2.8 | 10.8% | -1.5 | · | · | -0.6
O=C(CSc1ccc2nnc(CCNS(=O)(=O)c3ccccc3)n2n1)Nc1nc2ccccc2s1 | 0.6 | 1.9 | 3.1 | · | -4.4 | 4.5 | 3.5 | 0.1
COc1ccc(OCC(=O)Nc2ccc(N3CCN(Cc4ccccc4F)CC3)cc2)cc1 | -6.1 | 1.1 | -0.9 | -1.4% | 3.8 | 3.3 | 2.5 | -0.3
Cc1ccccc1N1CCN(C2=NC(=O)/C(=C/c3cn[nH]c3-c3ccccc3)S2)CC1 | 1.1 | -7.5 | -1.6 | · | -5.5 | 1.1 | 0.5 | 0.3
CCN(CC)c1ccc(C(=O)Nn2cnc3ccccc3c2=O)cc1 | -11.0 | -2.8 | 1.8 | -13.0% | -3.8 | -3.2 | 1.2 | 0.7
CCN1CCN(C(=O)c2ccccc2NS(=O)(=O)c2ccc(Cl)cc2)CC1 | 1.1 | -0.8 | -1.1 | -3.0% | -2.5 | 5.1 | -0.4 | -0.3
CCN1CCN(c2cc(C)c3cc(NC(=O)CCC(=O)N4CCN(c5ccccc5)CC4)ccc3n2)CC1 | 26.5 | 3.8 | -1.9 | · | 1.2 | -3.4 | ? | -0.8
Cc1ccc([N+](=O)[O-])cc1NC(=O)C(Sc1ccccc1)c1ccccc1 (stereo not drawn) | -1.0 | · | -7.0 | 8.4% | 2.7 | -13.4 | -1.5 | -0.2
CN(C)S(=O)(=O)c1ccc(C(=O)Nc2cc(S(=O)(=O)Nc3ccccc3Cl)ccc2N2CCCCC2)cc1 | 1.1 | · | 6.4 | -7.3% | 2.6 | -1.9 | 1.4 | 0.2
COc1ccc(N=C2S/C(=C\c3ccc(OCC(=O)O)cc3)C(=O)N2CCc2c[nH]c3ccccc23)cc1 | -0.2 | 35.3* | · | 19.2% | · | 15.8 | 3.1 | ·
CCCCOc1cccc(C(=O)Nc2ccccc2N2CCCC2)c1 | -3.5 | 0.9 | 0.6 | 6.1% | -1.2 | -15.8 | -2.9 | -0.4
O=S(=O)(Nc1ccc2ccccc2c1)c1ccccc1 | -27.6 | · | 1.6 | · | -8.6 | 2.2 | 1.1 | -0.6
Cc1noc(C(=O)N(C)c2ccccc2)c1Cl | -9.5 | 0.3 | -1.8 | -2.5% | -2.6 | -10.7 | 8.1 | 0.2
CCC(C)n1c(SCC(=O)NC2CCS(=O)(=O)C2)nc2ccccc2c1=O (stereo not drawn) | -6.7 | -1.0 | 5.0 | -5.9% | 1.1 | -14.6 | -1.2 | 0.5
CC1(C)CC(NS(=O)(=O)c2ccc3ccccc3c2)CC(C)(C)N1 | 9.0 | -7.4 | -1.1 | 3.7% | 0.8 | -6.2 | -2.1 | 0.1
COc1ccc(N2C(=O)N[C@@H](Cc3ccccc3)C2=O)cc1OC | 2.1 | 0.3 | 2.4 | 1.3% | -6.8 | -3.0 | ? | -0.1
O=C(N/N=C/c1ccc[nH]1)c1ccc(Cl)cc1 | -11.3 | 1.8 | -5.6 | -3.8% | -6.0 | 3.7 | 4.3 | -0.8
CCN(CC(=O)NCc1cccs1)S(=O)(=O)c1ccccc1Cl | -10.4 | -6.4 | 0.4 | 2.2% | -1.5 | 3.3 | 2.8 | -1.0
CC(=O)N1CCCc2cc(S(=O)(=O)N3CCCC(C(=O)NCc4ccccc4Cl)C3)ccc21 (stereo not drawn) | 5.2 | 31.6* | 0.4 | -6.3% | 7.2 | -7.8 | 3.7 | -0.9
COc1ccccc1C(=O)NCC(=O)OCCCOC(=O)CNC(=O)c1ccccc1OC | -7.6 | -5.6 | 0.0 | · | -1.1 | 3.2 | 3.9 | 0.7
Cc1cccc(CC2CC(=O)N(c3ncccn3)C2=O)c1 (stereo not drawn) | -29.7 | · | -3.6 | 0.5% | -3.6 | 7.4 | 1.6 | 0.1
CCn1c(=O)n(CCOC)c(=O)c2c3c(sc21)CCCC3 | 6.3 | · | -2.7 | 14.8% | 0.5 | 7.2 | -0.1 | 0.0
O=C(Cn1ccc2ccccc2c1=O)NCC(=O)N1CCN(c2ccccc2F)CC1 | -2.5 | -2.6 | 2.8 | · | -4.7 | -1.9 | -1.1 | -0.4
CCCCN(C(=O)c1ccncc1)c1c(N)n(CCC)c(=O)[nH]c1=O | · | -1.8 | 0.7 | 4.3% | -4.2 | · | · | 0.0
CSc1nc(C)nc2c1c(=O)n(C)c(=O)n2C | -14.0 | 1.6 | -0.2 | ? | -4.7 | 0.5 | -0.4 | ·
C#CCOC(=O)C[N+](C)(C)C/C=C/c1ccccc1 | -7.2 | -1.0 | -5.7 | · | · | 11.2 | -0.3 | 0.5
O=C(N1CCOCC1)N1CCN(S(=O)(=O)N2CCOCC2)CC1 | -6.1 | · | -4.4 | 1.0% | -1.3 | 0.2 | 2.9 | 0.6
COc1cccc(/C=C/C(=C2/C(=O)N(c3ccccc3)N=C2C)c2ccccc2)c1OC | 50.3 | · | 3.9 | 0.5% | 9.0 | 5.0 | -3.5 | 2.4
CCCC(=O)Nc1ccc(NC(=O)c2ccco2)cn1 | 2.9 | · | 6.0 | -1.5% | · | -15.4 | -0.9 | -1.2
O=C1CSC(c2cn(-c3ccccc3)nc2-c2cc3ccccc3o2)N1Cc1ccccc1 (stereo not drawn) | -11.9 | · | 1.5 | 5.1% | 4.8 | -3.2 | -0.3 | 0.6
CCOc1ccc(C2CC(c3ccc(OC)cc3)n3ncnc3N2)cc1 (stereo not drawn) | 13.9 | 1.7 | 2.6 | 2.3% | -10.4 | 2.7 | -4.9 | -0.7
COc1cccc(/C(O)=C2/C(=O)C(=O)N(CCN3CCOCC3)C2c2cccnc2)c1 (stereo not drawn) | -23.6 | · | 1.8 | 1.0% | -2.3 | -6.1 | -2.8 | 1.3
C=CCOc1cccc(C(=O)N2CCC(CCC(=O)NC3CC3)CC2)c1 | -1.5 | -8.4 | 0.8 | · | -9.3 | -13.5 | 1.3 | 0.6
COCC(=O)N1CCCc2ccccc21 | -17.3 | · | -2.0 | 19.0% | 0.6 | 8.5 | -1.5 | 0.4
COC(=O)C1=C(C)N(CCc2c[nH]c3ccccc23)C(=O)C1 | -7.1 | -0.7 | -5.1 | -1.1% | -5.2 | -1.6 | -5.5 | 0.6
Cc1[nH]n(-c2ncc(-c3ccc(Cl)cc3)s2)c(=O)c1C(c1ccc(Cl)cc1)C(C#N)C#N (stereo not drawn) | -6.2 | · | -5.6 | · | -1.6 | -4.6 | 4.0 | -0.2
CCOc1cc(CN2CCC(CO)(Cc3cccc(C(F)(F)F)c3)CC2)ccc1OC | 44.9 | 5.4 | 1.9 | 4.1% | -4.6 | -20.2 | 0.5 | 0.8
CCN1C(=O)C(NC(C)=O)c2cc(OC)ccc21 (stereo not drawn) | -2.5 | · | -4.6 | 2.8% | -4.9 | · | 4.2 | -0.4
CC1(C)CC(=O)C=C(c2cccc(Cl)c2O)C1 | · | -0.4 | 1.0 | · | -1.2 | · | · | 0.1
Cc1ccc2c(c1)N(C(=O)CCC(=O)NC1CCCCCC1)CCO2 | -11.5 | -13.4 | -6.5 | · | -3.6 | -1.5 | -1.5 | -0.4
CC(=O)NC12CC3CC(C1)CC(C(=O)Nc1nc4ccc(F)cc4s1)(C3)C2 | 3.4 | 5.7 | -10.2 | · | 6.3 | 31.5 | 2.5 | 0.3
CCOc1ccc(CCNC(=O)CCNC(=O)c2ccccc2Cl)cc1OCC | 9.9 | 4.0 | -24.3 | · | -5.5 | ? | -3.5 | 1.2
CC(C)n1c2ccccc2c2nc3ccccc3nc21 | -6.5 | · | 4.7 | -4.5% | -14.6 | -9.0 | 4.6 | -1.8
CC(C)(C)c1cc(C(=S)N2CCCC2)cc(C(C)(C)C)c1O | 29.7 | 2.4 | -2.5 | · | -1.5 | 5.0 | 1.7 | 0.0
N#Cc1c(-c2ccccc2)nc(SCc2cccc(Cl)c2)[nH]c1=O | -1.2 | -19.6 | 4.3 | -15.2% | -6.0 | 40.2 | -1.2 | 0.2
Cn1c(C(=O)N2CCN(c3nc4ccccc4s3)CC2)cc2sccc21 | 1.9 | · | 1.5 | -8.0% | -12.7 | -2.6 | 0.7 | 1.0

The results go on:
SMILES | T cruzi inh | AF4-AF9 inh | LANA-H2B inh | Vif A3G | Beta apoptosis | Calb FLC | RanGTP-Imp inh | Bfl-1 A1 inh
CC1CN(S(=O)(=O)c2cccc(C(=O)OCc3cc(=O)oc4cc(O)ccc34)c2)CC(C)O1 (stereo not drawn) | 1.4 | · | 2.7 | ? | 0.7 | 8.8 | -0.7 | 1.4
CCOC(=O)c1[nH]cnc1C(=O)O | -4.2 | · | 2.6 | ? | -2.7 | -3.8 | 4.9 | 0.1
Cc1cc(C(C)(C)C)cc(C)c1CC1=NCCN1 | 52.5 | -2.7&0.1 | -14.1 | · | -5.0 | -3.2 | 3.6 | -0.3
COCCNC(=O)c1cn(C)c(=O)c2cc(OC)c(OC)cc12 | -4.4 | · | -1.6 | -5.0% | -4.9 | 8.8 | 0.3 | 1.3
CCOc1ccc(NC(=O)CN2CCN(S(=O)(=O)c3ccc(Cl)cc3)CC2)cc1 | · | · | 2.9 | -2.1% | -2.4 | -1.5 | -2.0 | 0.0
CCOc1cc(C(=O)NCc2ccc3c(c2)OCO3)cc(OCC)c1OCC | 0.7 | 0.9 | 1.7 | -4.0% | 2.7 | 5.0 | 2.9 | 0.8
COc1ccccc1OCCNC(=O)c1cccc(S(=O)(=O)N2CCN(Cc3ccccc3)CC2)c1 | · | 18.3 | 1.6 | -10.6% | 2.8 | · | · | 0.8
O=C1c2cccc3cccc(c23)C(=O)N1CCN1CCN(CC(O)COc2ccccc2)CC1 (stereo not drawn) | 29.2 | · | 3.3 | 17.4% | 2.9 | 1.0 | 0.0 | -0.1
O=C(NC1CC1)c1cc(Cl)ccc1[N+](=O)[O-] | -4.5 | · | -0.2 | -4.4% | -10.1 | 0.7 | 1.3 | -0.1
c1ccc(N2CCN(c3nc4cc5c(cc4s3)OCCO5)CC2)cc1 | -8.7 | · | -2.6 | 24.6% | -2.2 | -0.4 | 8.9 | -1.3
O=C(CSc1nc2cc3c(cc2c(=O)n1CCC1=CCCCC1)OCO3)NCc1ccco1 | -0.1 | · | -2.7 | 0.0% | -0.9 | -17.1 | 0.9 | 1.2
